Compound activity (PubChem)
TRPV1 PAM – HTS Assay for Compounds that Act as Potentiators of the Vanilloid Receptor 1; Transient receptor potential cation channel subfamily V member 1 (Homo sapiens), Q8NER1; TRPV1-expressing cells, Fluo-8 calcium influx, capsaicin EC20 potentiation; host cell line not named in the record; control for the full effect not named in the record; potentiation, % at 8.33 µM; 320,000 tested, 0.02% active; AID 540277, 2011; active means potentiation above 80%; inconclusive means 30% to 80%; inactive means below 30%; further: 0% is about no effect
Target sequence (Q8NER1 whole entry, looked up): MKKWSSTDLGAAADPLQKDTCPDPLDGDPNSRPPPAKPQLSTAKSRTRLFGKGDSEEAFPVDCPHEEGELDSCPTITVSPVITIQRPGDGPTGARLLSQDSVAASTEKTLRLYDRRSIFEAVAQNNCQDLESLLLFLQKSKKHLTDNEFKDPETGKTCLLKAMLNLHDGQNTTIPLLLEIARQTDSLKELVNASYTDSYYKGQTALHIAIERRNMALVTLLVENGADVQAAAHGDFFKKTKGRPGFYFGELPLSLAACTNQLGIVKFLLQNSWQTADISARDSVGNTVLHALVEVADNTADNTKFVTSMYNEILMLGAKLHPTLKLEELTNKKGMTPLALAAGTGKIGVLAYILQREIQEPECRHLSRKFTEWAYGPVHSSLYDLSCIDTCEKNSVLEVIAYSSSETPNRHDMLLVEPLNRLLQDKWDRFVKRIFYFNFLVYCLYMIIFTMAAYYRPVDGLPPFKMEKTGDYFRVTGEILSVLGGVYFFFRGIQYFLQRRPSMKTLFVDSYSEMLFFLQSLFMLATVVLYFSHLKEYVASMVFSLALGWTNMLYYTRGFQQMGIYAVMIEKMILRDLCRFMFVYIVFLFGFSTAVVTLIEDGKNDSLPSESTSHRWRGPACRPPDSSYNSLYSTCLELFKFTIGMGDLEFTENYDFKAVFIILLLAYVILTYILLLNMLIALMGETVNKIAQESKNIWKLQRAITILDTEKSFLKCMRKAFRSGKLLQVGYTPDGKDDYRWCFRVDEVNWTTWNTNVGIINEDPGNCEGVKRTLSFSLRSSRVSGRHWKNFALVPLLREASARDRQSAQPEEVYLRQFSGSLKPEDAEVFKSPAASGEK
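Fluo-8 calcium influx in TRPV1-expressing cells, kinetic read (ex 480/em 520 nm). Compound added and read 3 min for agonist activity, followed by capsaicin at EC20 final and 2 min further read for enhancement.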
gsp antag – qHTS for Antagonists of gsp, the Etiologic Mutation Responsible for Fibrous Dysplasia/McCune-Albright Syndrome: qHTS. AID 624288, 2012. Potency, µM (highest dose often 76.9 µM), inactives show top-dose activity change, negative = inhibition, actives largely listed as inhibitors. 340,000 tested, 0.4% active. gsp-mutant cells, cAMP HTRF, 30 min; control for the full effect not named in the record; active = falling curve of any shape with a large fitted effect; inconclusive = falling curve, mostly with a smaller effect; inactive = flat or rising curve; cell line not stated here;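 further: intracellular cAMP measured with PDE inhibitor Ro 20-1724 present during compound exposure; potency means the concentration at half of the fitted maximal effect; on the % scale 0 is the no-effect control and ±100 the full control effect; nearly all actives have a fitted effect of over 65% in size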
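Cells, 2000/well, grown 16–24 h in DMEM 10% FBS with 0.5 mg/ml G418, then compounds plus […] (300 uM addition stock), 30 min at 37C. cAMP read by HTRF (cAMP-d2 and anti-cAMP antibody-K in lysis buffer) after 30 min RT.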
Sfp PPTase inh – qHTS Assay for Inhibitors of Bacillus subtilis Sfp phosphopantetheinyl transferase (PPTase); 4'-phosphopantetheinyl transferase ffp (Bacillus subtilis), Q9F4F7; 310,000 tested, 3.5% active; Potency, µM, inactives show max response, negative = inhibition, usual class: inhibitors; AID 1490, 2009; Biochemical Sfp PPTase activity, qHTS; active means well fitted inhibition curve with a large enough effect; inconclusive means small, poorly fitted or top-dose-only effect, or another doubt; inactive means no such curve, though single readings can be large or run the other way;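 further: the enzyme is Sfp with the accession as filed and its product quenches rhodamine fluorescence; potency means the concentration at half of the fitted maximal effect; 0% = enzyme reaction without inhibitor and -100% = no enzyme wells; top concentration of the series not given in the record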
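Fluorescence-quenching assay with 15 nM Sfp, 5 uM rhodamine-CoA and 12.5 uM BHQ-2-labelled ybbR peptide in pH 7.6 Hepes/MgCl2 buffer. Enzyme was pre-incubated with compound for 15 min at room temperature. Rate was taken from the 30-min fluorescence change (525/598 nm).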
D2 potentiator – Beta-Arrestin HTS for Positive Allosteric Modulators of the Human D2 Dopamine Receptor: Potentiators | D(2) dopamine receptor (Homo sapiens), P14416 | DiscoveRx D2 beta-arrestin cells, luminescence, 90 min; 100% = 57 uM dopamine signal | potentiation, % (no concentration beside the values) | 360,000 tested, 0.23% active; active = potentiation of 50% or more; inconclusive = 30% to 50%; inactive = 30% or less;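 further: compound concentration not given in the record; tested on top of an EC20 dose of dopamine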
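PathHunter D2 cells, attached overnight at 37 deg C, received compound in DMSO plus dopamine at EC20 (50 nM final) for 90 min at 37 deg C. Beta-arrestin recruitment was read as luminescence after 1 h with detection reagent at ambient temperature.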
gsp ag – qHTS for Agonist of gsp, the Etiologic Mutation Responsible for Fibrous Dysplasia/McCune-Albright Syndrome: qHTS; gsp mutant cells, cAMP HTRF, 30 min; control for the full effect not named in the record; Potency, µM (top dose mostly 76.9 µM), without a hit: top-dose activation (cAMP increase), hits mostly activators; 340,000 tested, 0.13% active; AID 624287, 2012; active = well fitted activation curve with a large enough effect; inconclusive = small, poorly fitted or top-dose-only effect, or another doubt; inactive = no such curve, though single readings can be large or run the other way; cell line not stated here;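 further: phosphodiesterase inhibitor Ro 20-1724 added with compounds to block cAMP breakdown; potency means the concentration at half of the fitted maximal effect; nearly all actives have a fitted effect of over 60% in size; about a fifth of the inactives were tested at one dose only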
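Cells in DMEM/10% FBS with G418 were pretreated with compounds in DMSO plus […] (300 uM stock) for 30 min at 37C. cAMP was measured by HTRF (cAMP-d2 plus anti-cAMP antibody-K) after 30 min at room temperature.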
ClpP mod – qHTS Assay for Activators of ClpP | ATP-dependent Clp protease proteolytic subunit (Bacillus subtilis (strain 168)), P80244 | purified B. subtilis ClpP, FRET peptide cleavage, 20 min | Potency, µM (doses to about 57.5 µM), inactives show at the top dose activity change, negative = active | 340,000 tested, 1.9% active | AID 651965, 2013; active = well fitted falling curve with a large enough effect; inconclusive = small, poorly fitted or top-dose-only effect; inactive = no such curve, though single readings can be large or run the other way; further: potency means the concentration at half of the fitted maximal effect; the source files actives as falling curves though it sought activators and does not explain the sign; nearly all actives have a fitted effect of over 65% in size; many hits overshoot -100%
Target sequence (P80244 whole entry, looked up): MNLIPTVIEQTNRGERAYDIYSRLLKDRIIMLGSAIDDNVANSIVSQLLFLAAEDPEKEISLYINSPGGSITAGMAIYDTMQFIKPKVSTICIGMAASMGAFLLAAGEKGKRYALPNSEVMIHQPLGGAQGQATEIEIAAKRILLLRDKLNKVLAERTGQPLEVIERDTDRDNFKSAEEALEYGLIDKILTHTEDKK
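Buffer: 100 mM Tris/HCl pH8, 100 mM KCl, 0.05% low protease BSA, 2.5% glycerol, 0.01% Tween-20. ClpP 10 microg/mL final; 20 min RT; delta FRET normalized to ADEP and DMSO controls.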
Menin MLL FP FL – qHTS Assay for Inhibitors Targeting the Menin-MLL Interaction in MLL Related Leukemias: Competition With Fluorescein Labeled MLL-derived Peptide; Fluorescence polarization, fluorescein-MLL peptide displacement from menin; FP activity change, % at 61.4 µM; 290,000 tested, under 10 active; AID 1766, 2009; inconclusive = falling polarisation curve, or a change in total fluorescence; inactive = total fluorescence flat and polarisation flat or rising; no compound was filed as active; the % refers to the polarisation; negative = inhibition;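 further: % of control where 0% means no effect; inhibitors lower the polarisation; unlabelled MLL peptide was the positive control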
* hit, by the source's call; ? = inconclusive; nt = no result given; & = joins results of further samples; [ ] = another dose, or the depositor's remark.

Values run as follows: TRPV1 PAM	gsp antag	Sfp PPTase inh	D2 potentiator	gsp ag	ClpP mod	Menin MLL FP FL
> Cc1ccc(OCCNC(=O)CCC(=O)N2CCOCC2)cc1
    9	4%	nt	-11	22%[15.4 µM]	nt	nt
> COc1ccc(-n2nc(C(=O)NCC(=O)Nc3cccc(NC(C)=O)c3)c3ccccc3c2=O)cc1
    6	-6%	33%[activator]	2	-9%[15.4 µM]	?	0.5
> Cc1ccc(S(=O)(=O)Cn2nnnc2C(c2ccc(F)cc2)N2CCC(C(N)=O)CC2)cc1 (stereo unspecified)
    -6	-2%	8%	2	-13%	0.4%	-0.3
> COc1ccc(NS(=O)(=O)c2cc(NC(=O)c3ccc(S(=O)(=O)N(C)C)cc3)ccc2N2CCOCC2)cc1
    nt	-19%	nt	-1	0%	nt	nt
> O=C(N/N=C/c1cccc2ccccc12)c1cccs1
    18	15%	-13%	-13	33%	-8.1%	1.2
> N#Cc1ccsc1NC(=O)COC(=O)c1cc2ccccc2cc1O
    7	-11%	-18%	-2	20%[15.4 µM]	-0.5%	9.7
> COc1ccc(-c2nnc(SCc3ccccc3)n2N)cc1
    11	15%	13%	-14	-28%	-0.6%	-2.3
> O=C(Nc1cccc(F)c1)C1CCN(S(=O)(=O)c2cnc[nH]2)CC1
    -2	1%	-2%	-3	-23%	0.0%	nt
> CNC(=O)c1c(Cl)cnn1-c1ccc(C)cc1
    -2	18%	7%	-5	-21%[15.4 µM]	nt	5.1
> COc1ccc(C(c2sc3nc(C)nn3c2O)N2CCCCC2)cc1 (stereo unspecified)
    8	-2%	12%	-3	4%	-1.2%	0.6
> Cc1cc(=O)n(CC(=O)O)c2ccccc12
    -3	21%	4%	-3	25%	-8.2%	-1.0
> NC(=S)N/N=C/c1ccccc1O
    nt	4%	16%	-2	-22%	-25%	1.8
> CCN(CC)C(=O)c1sc(NC(=O)c2ccoc2C)c(C(=O)OC)c1C
    5	-6%	32µM*	-5	5%	-15%	2.7
> CC1(C)Cc2noc(N)c2C(C)(C)N1OC(=O)c1ccccc1
    -3	8%	-13%	7	-58%	0.1%	-2.7
> CC(C)NCC(O)COCCOc1ccc(Cl)cc1 (stereo unspecified)
    6	-2%	5%	0	15%	-0.9%	-1.7
> COc1cccc(C2C(C#N)=C(N)Oc3c2oc(CO)cc3=O)c1 (stereo unspecified)
    1	1%	12%	-5	-25%	0.6%	-0.1
> O=C(NCCc1ccccc1F)c1cccc2cccnc12
    -13	-5%	-18%	-7	-3%	nt	?
> O=C(Nc1ccc(F)cc1)C1CCCN(S(=O)(=O)c2ccc3[nH]c(=O)ccc3c2)C1 (stereo unspecified)
    -25	12%	22%	4	-17%	-2.1%	3.3
> Cc1c(CC(=O)N2CCN(C(=O)C3COc4ccccc4O3)CC2)c(=O)oc2cc(O)cc(O)c12 (stereo unspecified)
    -2	-15%	16%	-40	?	3.7%	10
> Cn1c(SCC(=O)Nc2ccccc2F)nc2c(c1=O)SCC2
    -1	-20%	11%	-5	-37%[inhibitor]	0.6%	1.1
> O=C(CCCn1c(=S)[nH]c2cc3c(cc2c1=O)OCO3)N1CCN(C2CCCCC2)CC1
    11	-1%	-4%	-21	?	-0.6%	2.7
> O=C(CC1c2ccccc2Oc2ccccc21)Nc1ccccc1F
    -6	-16%	5%	-10	7%[15.4 µM]	0.2%	1.7
> O=C(c1ccc2n[nH]nc2c1)N1CCN(c2ccc(C(F)(F)F)cn2)CC1
    -18	?	nt	-2	-115%[inhibitor]	-25%	nt
> CCCc1cc(=O)[nH]c(Nc2ccc(N3CCCCC3)cc2)n1
    -12	-11%	-3%	-4	28%	1.4%	0.6
> CCCCn1nnnc1SCC(=O)N1CCOCC1
    1	0%	4%	-13	-11%	-3.2%	-2.1
> COc1ccc(-c2cc(C(=O)N3CCN(c4ccccc4)CC3)c3ccccc3n2)cc1
    1	-4%	8%	7	-3%[15.4 µM]	nt	3.0
> COc1ccc(CCNC(=O)c2cc(-c3ccccc3)on2)cc1OC
    ?	11%	6%	2	12%	0.0%	-1.0
> COCCCNc1nc2nonc2nc1N(C)CC1CCCN1C (stereo unspecified)
    -4	3%	10%	-6	?	0.3%	-1.6
> COC(=O)C1=C(C)N(CCCC(=O)O)C(=O)NC1c1cccc(Cl)c1Cl (stereo unspecified)
    nt	2%	nt	-3	-2%	1.0%	nt
> Fc1ccc(-c2ccc(/C=N\n3cnnc3)o2)cc1Cl
    -12	6%	-10%	-5	-14%[15.4 µM]	?	6.6
> Cc1oc(-c2ccc(Cl)cc2)nc1CS(=O)CC(=O)NCCCN1CCCC(C)C1 (stereo unspecified)
    -16	7%	8%	-15	-3%	-16%	nt
> O=C(CN1CCCSc2ccccc21)N1CCN(S(=O)(=O)c2ccccc2)CC1
    -12	?	nt	25	-11%	0.5%	nt
> C=CCc1cc(S(=O)(=O)c2ccc(O)c(CC=C)c2)ccc1O
    15	1%	7%	-19	?	-0.9%	-2.0
> Cc1ccc(N/N=C2\CS(=O)(=O)N(C)c3ccsc32)cc1
    ?	-2%	-18%	?	1%	nt	4.7
> O=C(Cc1ccccc1)Nc1ccccc1N1CCCC1
    -1	0%	0%	-3	?	-0.7%	-1.6
> CC(NC(=O)CN1C(=O)NC2(CCc3ccccc32)C1=O)c1ccc2c(c1)OCCO2 (stereo unspecified)
    8	1%	nt	-1	24%	0.1%	nt
> COc1ccc(C)cc1NC(=O)CN1CCN(S(=O)(=O)c2ccc(F)cc2)CC1
    nt	-12%	-5%	24	18%	-1.4%	1.9
> COc1cccc(/C=N/NC(=O)CNC(=O)c2cccnc2)c1O
    6	9%	13%	0	6%	nt	7.4
> CCCCNC(=O)c1ccc(NC(=O)CC2SC(N3CCCC3)=NC2=O)cc1 (stereo unspecified)
    9	8%	nt	2	?	-0.8%	nt
> COC(=O)c1sc(S(=O)(=O)Nc2ccc3cn[nH]c3c2)c(C(=O)OC)c1C
    ?	-2%	14%	11	-14%	-0.7%	2.7
> COc1cc(/C=C2\S/C(=N/S(=O)(=O)c3ccc(C)cc3)NC2=O)c([N+](=O)[O-])cc1OC
    2	9%	6%	2	27%	1.7%	0.2
> COc1cc(OC)cc(C(=O)NC(=S)NCCc2ccccc2)c1
    ?	-9%	27%	-8	?	1.4%	0.2
> COc1ccccc1NC(=O)N1CCCC1C(=O)Nc1nnc(C(C)C)s1 (stereo unspecified)
    1	7%	18%	1	10%	-0.8%	2.2
> OCC1C2c3ccccc3C(c3ccccc32)C1CO (stereo unspecified)
    -8	1%	5%	-4	-7%[15.4 µM]	nt	-3.6
> CCCN1CCC(NC(=O)Cc2ccccc2C)CC1
    -2	5%	7%	-5	2%	-1.0%	-1.0
> Cc1cccc(-c2nc3ccc(C(=O)NCCN4CCN(C)CC4)cc3nc2-c2cccc(C)c2)c1
    -11	4%	50µM*	-5	14%	4.1%	1.7
> COc1cc2c(c(OC)c1OC)-c1ccc(SC)c(=O)cc1C(NC=O)CC2 (stereo unspecified)
    nt	25%	nt	0	-34%[inhibitor]	-1.1%	nt
> O=C(CCCN1C(=O)CCC1=O)Nc1cccc(C(F)(F)F)c1
    0	-9%	16%	0	-20%	0.7%	-0.1
> CC(C)N(C)C1CCN(C(=O)Nc2ccc(Cl)c(Cl)c2)CC1
    -4	17%	9%	-20	0%	1.0%	5.1
> Cc1ccccc1C(=O)/C=C1/c2ccccc2CC(C)(C)N1C
    -7	-9%	7%	-13	2%	-1.0%	7.1
> CCC(C)NS(=O)(=O)c1ccc(NS(=O)(=O)c2ccc(F)cc2)cc1 (stereo unspecified)
    13	13%	7%	-3	-4%	-1.6%	3.6
> COc1cccc(-c2nc(CS(=O)(=O)CC(=O)NCCc3ccc(OC)c(OC)c3)c(C)o2)c1
    -8	-9%	11%	-7	28%	-2.2%&-1.7%	0.2
> CCc1ccc(CCC(=O)Nc2nnc(CC)s2)o1
    8	1%	?	2	18%	-2.2%	0.5
> COCC(C)n1c(C)cc(C(=O)COC(=O)/C=C/c2cccc(F)c2)c1C (stereo unspecified)
    -11	2%	-1%	-3	-2%[15.4 µM]	0.3%	-6.8
> CCOc1ccc(CN2CCNC(=O)C2CC(=O)N(C)CC2CCOCC2)cc1 (stereo unspecified)
    -3	2%	7%	-6	-22%[15.4 µM]	0.8%	1.7
> CCn1nccc1C(=O)Nc1cccc(C)c1C
    -4	8%	22%	4	-52%[inhibitor]	nt	6.4
> N#CC1=C(N)C(C#N)(C#N)C(c2ccncc2)C2CN(C(=O)OCc3ccccc3)CC=C12 (stereo unspecified)
    -17	-19%	17%	-15	?	24%	2.4
> CC(=O)c1sc(N/N=C\c2ccccc2O)nc1C
    3	-21%	13%	-7	?	nt	?
> COc1ccccc1C(=O)Nc1ccc(Cc2ccncc2)cc1
    -21	-18%	1%	-6	6%	1.0%	1.6
> O=C(NNC1=C(C(=O)C(F)(F)F)CCC1)c1ccc(Br)cc1
    27	-22%	34%[activator]	-24	1%	0.5%	0.6
> COc1ccc(Cl)cc1NC(=O)COC(=O)Cc1cccs1
    -4	5%	nt	-4	-2%[15.4 µM]	-1.2%	nt
> COc1cccc(CNC(=O)CS(=O)(=O)Cc2nc(-c3ccc(C)cc3)oc2C)c1OC
    -32	-10%	3%	3	-8%	-8.6%	1.8
